Bioassay records as filed in PubChem.
NPYLR7 ag: activates Aedes aegypti NPYLR7 receptor; AID 1259423; actives 0.15% (n = 270,000); HEK293T NPYLR7/Galpha15, GCaMP6s calcium fluorescence; activation, % at 10 µM; in the data active = activation above about 40%;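 also: 0% = vehicle and 100% = reference agonist at the receptor; some compounds past the cut are filed as inactive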
NPYLR7 ag max-min: also measured in NPYLR7 ag; calls as there; activation, %; measured here: Max-Min RFU normalised activation; some inactives read as strong as hits;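 span of the calcium signal over five minutes; 0% = vehicle and 100% = native peptide agonist; compound fluorescence can raise it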
* hit, by the source's call; & = joins results of further samples. This is a subset. The share of hits here may be higher or lower than overall.

Compound	NPYLR7 ag	NPYLR7 ag max-min
Cc1ccc(-n2nc(-c3cccn3C)cc2C(=O)Nc2ccc(C)c(C)c2)c(C)c1	14	17
C=C(C)Cn1c(C(F)(F)F)nc2ccccc21	-6	-7
CSc1nsc(SC)c1C(=O)N1CCN(C(=O)c2ccccc2)C1c1ccccc1 (stereo not drawn)	-6	-9
Cc1ccc(-n2ncc3c(=O)n(NC(=O)c4ccc(C)c([N+](=O)[O-])c4)cnc32)cc1	0	-3
Cc1ccc(C(=O)Nc2ccc(CN3C(=O)CNC3=O)cc2)cn1	15	4
CCOC(=O)CCC(=O)N1CCN(c2cc(Oc3ccc(F)c(F)c3)ncn2)CC1C (stereo not drawn)	-6	-3
CCOC(=O)CC1(N(C)C(=O)c2cc(C)[nH]n2)CCCCC1	-4	-5
CCCCC(=O)Nc1nnc(SCC(=O)Nc2nccs2)s1	6	11
CCOC(=O)C=C1NC(=O)CS1	1	-1
CC1(C)C(c2ccccc2)=NC(c2ccccc2F)N1O (stereo not drawn)	-18	-23
Cc1ccc2c(c1)c1nc3ccccc3nc1n2C(C)C	15	12
CCN(NC1=NS(=O)(=O)c2ccccc21)S(=O)(=O)c1ccc(C)cc1	12	6
CCOC(=O)C(C)Sc1nc(C)nc2c1c(=O)n(C)c(=O)n2C (stereo not drawn)	1	-1
O=C(O)CCC(=O)NNC(=O)CNC(=O)c1ccc(Cl)cc1Cl	3	3
NC(=O)N1CC=C(c2ccc(Oc3ncnc4sccc34)cc2)CC1	7	5
COc1cccc(-c2nc3ccccn3c2NC(=O)CCc2ccccc2)c1	-8	-7
COc1ccc(S(=O)(=O)ON=C2C(C)=CC(=O)C=C2C)cc1	4	6
O=C(CCl)N1CCN(c2ncnc3c2nnn3Cc2ccccc2)CC1	-5	-11
O=C(/C=C\c1ccco1)Nc1c2c(nn1-c1ccc(Cl)cc1)CSC2	0	-3
CC(=O)Nc1ccc(C(=O)CSc2nnc(N3CC(C)CC(C)C3)n2Cc2ccco2)cc1 (stereo not drawn)	4	4
O=C(NCCNC(=O)C1CCN(C(=O)c2ccc(Cl)cc2Cl)CC1)c1ccccc1	26	24
c1cn(-c2ccc3cc[nH]c3c2)cn1	-7	-11
C=CCN1C(C(=O)c2ccccc2)=C(OC(=O)Cc2ccccc2)c2ccccc2S1(=O)=O	-1	-7
Cc1cccc(CO[C@]2(C(=O)NCCN3CCCC3)CC(OCc3cccc(F)c3F)[C@@H]3OC(C)(C)O[C@@H]3C2)c1 (stereo partly drawn)	16	3

4 records picked at random from the list so far:
Compound	NPYLR7 ag	NPYLR7 ag max-min
Cc1cccc(CO[C@]2(C(=O)NCCN3CCCC3)CC(OCc3cccc(F)c3F)[C@@H]3OC(C)(C)O[C@@H]3C2)c1 (stereo partly drawn)	16	3
CCOC(=O)C(C)Sc1nc(C)nc2c1c(=O)n(C)c(=O)n2C (stereo not drawn)	1	-1
CC(=O)Nc1ccc(C(=O)CSc2nnc(N3CC(C)CC(C)C3)n2Cc2ccco2)cc1 (stereo not drawn)	4	4
COc1cccc(-c2nc3ccccn3c2NC(=O)CCc2ccccc2)c1	-8	-7

(list continues)
Compound	NPYLR7 ag	NPYLR7 ag max-min
CC(C)COc1nc(-c2ccc3c(c2)OCO3)n(-c2ccc(NC(=O)C3CC3)cc2)n1	16	17
O=C(CNc1cccc(-c2ccc(Cl)c(Cl)c2)c1)NC1CCS(=O)(=O)C1 (stereo not drawn)	11	12
NS(=O)(=O)c1ccc(Nc2nc(C3CC3)cs2)cc1	1	-4
Cc1c(-c2nccn2Cc2cn3ccccc3n2)c(=O)n(-c2ccccc2)n1C	18	5
Cc1ccc(NC(=O)NCC2CCCN(C3CCN(C)CC3)C2)cc1 (stereo not drawn)	-2	-3
Cc1c(C(=O)O)sc2nc(C)n(C)c(=O)c12	3	0
COCC(C)Nc1nc(Nc2ccc(OC)cc2)c2cn[nH]c2n1 (stereo not drawn)	-1	-2
CN(C)Cc1ccccc1N	-7	-13
O=c1n(Cc2noc(-c3ccoc3)n2)nnn1-c1cccs1	12	6
Cc1ccc(N2CCN(S(=O)(=O)c3cc([N+](=O)[O-])ccc3C)CC2)cc1Cl	1	12
COc1cc(OC)cc(C2NC(=O)N(C)C3=C2C(=O)N(Cc2cccc(C(F)(F)F)c2)C3)c1 (stereo not drawn)	30	34
COc1cccc(NC(=O)NCC2CCN(Cc3cnc(C)[nH]3)C2)c1 (stereo not drawn)	0	-2
Cc1ccc(Cc2nc(N3CCN(C(=O)C4CCCCC4)CC3)c3c(C)nn(-c4ccc(F)cc4)c3n2)cc1	-7	-3
COc1ccc(C(=O)N(Cc2cccnc2)c2nc3c(C)c(C)ccc3s2)cc1OC	-5	-1
O=C(C(=O)N1CCc2c(nc(-c3ccccn3)[nH]c2=O)C1)c1ccccc1	4	3
COc1cc(S(=O)(=O)N2CCN(CCO)CC2)ccc1Cl	1	2
O=C(NCc1ccccn1)C1COC2(CCN(C(=O)c3ccc(Cl)cc3)CC2)N1C(=O)c1ccco1 (stereo not drawn)	1	11
CC(=O)c1cccc(-c2cc(N)nc(N3CCCC3)n2)c1	-2	-4
CN1CC2(CCCN(Cc3cccc(OCC(=O)O)c3)C2)OC1=O (stereo not drawn)	-5	-6
CCSc1ccc(NC(C)=O)nn1	-3	-2
COc1ccc(S(=O)(=O)N(CC(=O)N2CCc3sccc3C2COc2cccc(F)c2)CC2CCCO2)cc1 (stereo not drawn)	-1	4
CCOC(=O)C1=C(C)N=c2s/c(=C\c3c4ccccc4cc4ccccc34)c(=O)n2C1c1ccc(OC)cc1 (stereo not drawn)	9	14
CC(C)c1n[nH]c(C2CN(C(=O)C3(C#N)CCCC3)CCO2)n1 (stereo not drawn)	4	1
CCC(C)c1ccccc1NC(=O)c1cnccn1 (stereo not drawn)	-23	-26
CSc1nnc(C)c(=O)n1COC(=O)c1cc(C)cc(C)c1	1	-2
Nc1ncc(Cc2ccc(Br)cc2)s1	2	9
O=C(CCC1CCCC1)N1CCN(C(=O)c2cccnc2)CC1	5	1
O=S(=O)(c1ccc2c(c1)Cc1cc(S(=O)(=O)N3CCCCC3)ccc1-2)N1CCCCC1	1	34
Cn1c(=O)n(Cc2ccc(F)cc2)c(=O)c2c1nc1n2CCCN1CCc1ccccc1	-1	1
CC(=O)N1CCC(Oc2ccc(Cl)cc2C(=O)NCCC2=CCCCC2)CC1	16	10
Cc1ccc(-c2csc(-n3[nH]c(C)c(N=Nc4ccc(Cl)cc4Cl)c3=O)n2)cc1	-4	-9
COc1ccc(CN(CC2CCCO2)C(=O)c2ccccc2Cl)cc1OS(C)(=O)=O (stereo not drawn)	-3	1
O=C(CN1CCCCC1)N/N=C\c1cc2ccccc2nc1Cl	-2	-4
CCN(CC1COc2ccccc2O1)C(=S)NCCCN(C)C (stereo not drawn)	2	7
COCCCN(Cc1ccc(C)o1)Cc1ccc(C(O)(c2cccs2)c2cccs2)o1	11	10
Cc1cc2nc(C(=O)N3CCCC4(CC3)CNC(=O)O4)cc(C)n2n1 (stereo not drawn)	16	4
CCOc1ccc2c(c1)C=C(C(=O)NCc1ccco1)CO2	-1	0
CCc1ccccc1NC(=O)Cn1nc(-c2ccccc2)c2sc(N3CCOCC3)nc2c1=O	-1	-4
OCCC1CN(Cc2cc3ccccc3[nH]2)CCN1Cc1cccs1 (stereo not drawn)	6	2
COc1ccc(-c2ccccc2C(N)=O)c(C)c1	5	1
CCn1c(CN2CCCn3nc(C(=O)OC)cc3C2)nc2ccccc21	-1	13
O=C(c1cc(-c2ccncc2)nc2ccccc12)N1CCCC(O)(CO)CC1 (stereo not drawn)	6	6
Cc1ccc(N2C(=O)CC(C(=O)NC3=NCCS3)C2c2cccs2)cc1 (stereo not drawn)	-3	-3
O=C(NCc1ccncc1)C(Cc1ccccc1)NC(=O)C1CC(c2cccc(F)c2)=NO1 (stereo not drawn)	2	7
COCC(=O)Nc1ccc(-c2c(C(C)C)nn(-c3cccc(F)c3)c2OC(C)=O)cc1	-3	0
O=C(c1ccc(F)c(F)c1)N1CCN(Cc2cccc(-c3noc(C4CCCC4)n3)c2)CC1	-2	-6
Cc1oc(-c2cccc(Cl)c2)nc1CSc1nc2c(c(=O)[nH]1)CCC2	-3	-5
Cc1onc(-c2ccccc2Cl)c1C(=O)Nc1ccccc1C(C)C	0	0
CCC(CC)c1nnc(NC(=O)CCN2C(=O)C(C)Oc3ccccc32)s1 (stereo not drawn)	5	4
CC(=O)NC(CO)C(=O)NCc1cccnc1N1CCN(C)CC1 (stereo not drawn)	-7	-7
CC(C)=CCN1CCN(Cc2sccc2C)CC1CCO (stereo not drawn)	7	1
O=C(Cn1cnnn1)N1Cc2cnn(Cc3ccc(F)cc3)c2C1	0	0
O=C(Nc1cc(C(F)(F)F)cc(C(F)(F)F)c1)N1CCSC1c1cccc(Oc2ccccc2)c1 (stereo not drawn)	32	30
CC(O)c1nc2ccccc2n1CCCCOc1ccc(Cl)cc1 (stereo not drawn)	3	7
CC(C)CS(=O)(=O)c1nc2cccnc2s1	10	13
C=CCn1c(=O)c2c(nc3n2CCN3c2cccc(Cl)c2)n(C)c1=O	5	1
CCOC(=O)C1(Cc2ccccc2C(F)(F)F)CCN(C(=O)C2=CCCC2)CC1	6&16	3&18
Cc1noc(C)c1CCC(=O)NC(C)c1cnn(-c2cccc3ccccc23)c1C (stereo not drawn)	-5&-9	-6&-10
Cc1ccc(F)c(C(=O)N2CCN(c3ccc(NC(=O)c4ccco4)cn3)CC2)c1F	6	4
Cc1ccc(F)cc1NC(=O)CN1CC(O)Cc2ccc3ccccc3c21 (stereo not drawn)	-2	-2

One compound at a time (already shown). Values in the order: NPYLR7 ag | NPYLR7 ag max-min
`CCOC(=O)CCC(=O)N1CCN(c2cc(Oc3ccc(F)c(F)c3)ncn2)CC1C` (stereo not drawn) is entered as -6 | -3
`CCN(NC1=NS(=O)(=O)c2ccccc21)S(=O)(=O)c1ccc(C)cc1` is entered as 12 | 6
`COc1ccc(CN(CC2CCCO2)C(=O)c2ccccc2Cl)cc1OS(C)(=O)=O` (stereo not drawn) is entered as -3 | 1

(continued)
Compound	NPYLR7 ag	NPYLR7 ag max-min
CCCCOC(=O)N1CC(=O)N(Cc2ccco2)CC(O)C1 (stereo not drawn)	5	16
CC(C)NC(=O)c1noc(C(C)C)c1[N+](=O)[O-]	6	5
CCOc1ccccc1CN1CCN(C/C=C/c2ccc(F)cc2)CC1CCO (stereo not drawn)	1	-1
Clc1ccc(-c2nc3sccn3c2/C=N\OCc2ccc(Cl)c(Cl)c2)cc1	-12	-17
CCc1nc(N(CCC(=O)NCCN2CCOCC2)Cc2ccco2)c2ccccc2n1	3	5
CCc1nc2c(OCC(=O)C(C)(C)C)cccn2c1N(C)C(=O)c1ccccc1F	-2	-5
Cc1ccsc1CN(CCN(C)C)Cc1cccc2cnccc12	-4	-9
Cc1nc(CC(=O)NCc2cc(-c3cccc(F)c3)no2)c(C)s1	1	-3
CCOC(=O)C1=C(C)NC2=C(C(=O)CC(c3ccccc3)C2)C1c1ccc(Cl)cc1 (stereo not drawn)	-4	-6
COC(=O)c1ccc(NS(=O)(=O)c2ccsc2C(=O)OC)cc1	2	2
Cc1csc(Cn2nc(CC3CCNCC3)n(-c3ccccc3)c2=O)n1	0	2
CC(=O)N1CCN(c2cc(C)c([N+](=O)[O-])cc2F)CC1	1	6
CCC(C)N(Cc1nc(C(=O)NC2CC2)co1)Cc1ccc(OC)cc1OC (stereo not drawn)	16	4
C=CCN(C)C(=O)c1cncn1-c1ccc(-c2cc(C(F)(F)F)cc(C(F)(F)F)c2)cc1	11	23
C=CCn1c(SCC(=O)NC2CCCCC2)nc2sc3c(c2c1=O)CCCC3	-5	-11
Cc1ccc2[nH]c(C(=O)O)c(CN3CCC(N4CCCC4=O)CC3)c2c1	5	4
O=C(Cc1n[nH]c(=O)c2ccccc12)NC1CCCc2ccccc21 (stereo not drawn)	6	3
Cc1cc(C)c2oc(-c3ccc(C)c(NC(=O)c4ccc(Cl)c([N+](=O)[O-])c4)c3)nc2c1	1	-12
Cc1c(C(=O)NC2CC(=O)N(CCc3ccccc3)C2)n(C)c2c(C)cccc12 (stereo not drawn)	6	7
O=S(=O)(Nc1nc(CN2CCCCC2)nc2sc3c(c12)CCCC3)c1cccs1	6	6
Cc1nc2sccn2c1CN1CCC(CO)(CCOc2ccccc2)CC1	-9	-15
CCc1ccc(-c2ccc(NC3CCCCCC3)nn2)cc1S(N)(=O)=O	-16	-22
O=C(NCc1ccco1)c1cccc(Nc2c(Oc3ccccc3)cnn(Cc3ccccc3)c2=O)c1	12	19
COC(=O)c1ccc2oc(=O)c(S(=O)(=O)N3CCN(C)CC3)cc2c1	3	2
Cc1ccccc1CO[C@]1(C(=O)NCC2CCCO2)CC(OCc2ccc(C(F)(F)F)cc2)[C@H](O)[C@H](O)C1 (stereo partly drawn)	16	13
C#CCNC(=O)CNC(=O)C1CCCCN1Cc1cccc(C)c1 (stereo not drawn)	3	2
Cc1cc(C)n(-c2nc3cc(Cl)ccc3nc2Cl)n1	12	3
Cc1ccc(C2=NN(C(=O)CN3CCc4ccccc4C3)C(c3ccccc3Cl)C2)cc1C (stereo not drawn)	19	16
COc1cccc(-c2nn(-c3ccccc3)cc2CNCC(OC)c2cccs2)c1 (stereo not drawn)	4	2
COc1cc(CN2CCN(Cc3ccncc3)CC2CCO)cc(OC)c1 (stereo not drawn)	-7	-8
CSc1ccc(NC(=O)C2CCN(C(=O)c3cccs3)CC2)cc1	1	9
CCC(=O)N1CCC(c2nc(C)ccc2C(=O)NCc2ccc(C)cc2)CC1	4	2
